# Source: PubChem BioAssay
# RGS16-Gao: modulates binding between human RGS16 and Galphao; binding response (% of control), % at 10 µM; AID 1441; O15492+P09471; 220,000 tested, 0.38% active; bead-based flow cytometry RGS16-Galphao binding, fluorescence; actives lie on both sides;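 active = below 25% or above 175%, edge rows of some plates excepted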;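 note: Galphao activated by GDP with aluminum fluoride before binding; 100% = wells without compound and 0% = beads without RGS; some results beyond the cut were filed as inactive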
# GALR2 ag: activates the human galanin receptor 2. O43603. GALR2-expressing cells, agonist activation read-out. activation, %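 (tested at 5 µM)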. 140,000 tested, 0.48% active;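 active = above mean plus 3 SD of all compounds, about 5% in these data, not always enough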;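 note: 0% = vehicle buffer wells and 100% = reference agonist at full effect; tested in CHO reporter cells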
# PKD1 inh: PKD1 (human) kinase inhibition. inhibition, %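 (about 10 µM by stock and volumes)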. PKD1 kinase fluorescence polarization assay. 200,000 tested, 0.056% active. Q15139;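 active = inhibition of 50% or more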;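 note: controls were vehicle for no effect and a reference inhibitor for full effect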
# Target sequence (Q15139 whole entry, looked up): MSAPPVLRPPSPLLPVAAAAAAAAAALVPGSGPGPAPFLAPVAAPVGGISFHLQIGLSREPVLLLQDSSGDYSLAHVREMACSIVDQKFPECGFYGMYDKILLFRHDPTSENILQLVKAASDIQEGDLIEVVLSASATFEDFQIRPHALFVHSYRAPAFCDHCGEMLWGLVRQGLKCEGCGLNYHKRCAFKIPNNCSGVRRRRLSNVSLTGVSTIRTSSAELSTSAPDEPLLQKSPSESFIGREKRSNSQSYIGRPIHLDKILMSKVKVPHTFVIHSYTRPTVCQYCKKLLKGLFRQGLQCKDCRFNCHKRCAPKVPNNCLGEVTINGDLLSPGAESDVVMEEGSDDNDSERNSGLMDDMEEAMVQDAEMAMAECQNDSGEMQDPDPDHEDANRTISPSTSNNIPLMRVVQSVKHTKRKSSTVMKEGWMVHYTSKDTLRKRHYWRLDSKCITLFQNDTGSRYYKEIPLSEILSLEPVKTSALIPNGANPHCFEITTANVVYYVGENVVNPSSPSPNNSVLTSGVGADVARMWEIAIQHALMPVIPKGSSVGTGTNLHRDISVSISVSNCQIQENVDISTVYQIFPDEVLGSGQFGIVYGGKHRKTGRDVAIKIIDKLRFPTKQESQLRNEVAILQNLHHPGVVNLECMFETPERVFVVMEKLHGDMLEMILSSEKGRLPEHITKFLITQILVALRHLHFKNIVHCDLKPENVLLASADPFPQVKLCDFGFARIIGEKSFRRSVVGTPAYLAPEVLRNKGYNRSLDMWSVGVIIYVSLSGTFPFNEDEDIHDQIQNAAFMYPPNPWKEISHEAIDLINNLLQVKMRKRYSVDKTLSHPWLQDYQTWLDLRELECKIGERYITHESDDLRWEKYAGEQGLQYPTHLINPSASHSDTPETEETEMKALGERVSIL
# INS promoter inh: TRM-6 insulin promoter activity inhibition. TRM-6 cells (human fetal islet line), insulin promoter-eGFP reporter, imaging; reporter expression induced with tamoxifen. inhibition, % at 2 µM. 130,000 tested, 0.9% active. AID 1273;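 active = inhibition above the mean plus 3 SD, with well images judged a real hit on visual review, cut at about 60% in these data, passing the limit was not always enough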
# HSV augment: HSV replication enhancement | HSV replication augmentation in cells, fold increase | maximum fold increase | 220,000 tested, 0.005% active;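 active = peak rise of 1.5-fold or more in the series; tested in PC3 cells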;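 note: first round at 10 µM; read as green reporter fluorescence; hits show the peak of a series up to 25 µM; 1 = signal of infected wells without compound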
# INS promoter inh cell count: also measured in INS promoter inh; calls as there; normalized cell count, %; measured here: cell count, toxicity; reference of the scale not given here;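 cells exposed to compound for 48 h; stained nuclei by imaging scaled within each plate; lower means fewer cells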
# HSV augment primary fold: also measured in HSV augment; calls as there; fold increase; compound at 10 µM; measured here: primary screen fold increase 10 uM; tested in PC3 cells;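 GFP signal in the first replicate; 1 = infected wells without compound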
# Numbers without * were called inactive; i = inactive; . = not tested or not shown. Compounds as they come; overall some 1.3% were active at least once.
SMILES	RGS16-Gao	GALR2 ag	PKD1 inh	INS promoter inh	INS promoter inh cell count	HSV augment	HSV augment primary fold
O=C(COc1ccc2ccccc2c1)NCC(=O)N/N=C/c1ccco1	104	-0.2	-13	-4	100	i	0.83
CCCCCCCNC(=O)C1CC(=O)N(C)C(=Nc2ccc(OC)cc2)S1 (centres undefined)	112	-0.3	-9	-70	70	i	0.98
CCCCN(C)CCNC(=O)c1ccc2c(c1)NC(=O)C(N1CCCCC1)S2 (centres undefined)	99	-1.1	2	.	.	i	1
C#CC[N+](CC)(CC)CC#Cc1ccccc1	104	.	.	.	.	i	0.95
COc1ccc(CCNC(=O)CN2C(=O)C3(OCCCO3)c3ccccc32)cc1OC	99	-0.5	-7	4	124	i	0.75
Cc1cc(N2CCN(C(c3ccccc3)c3ccc(Cl)cc3)CC2)n2ncnc2n1 (centres undefined)	105	-0.2	-7	5	119	.	.
O=C(CSc1nnc(-c2ccc(Br)cc2)o1)N1CCN(C(=O)c2ccco2)CC1	99	-1.9	-3	.	.	i	0.81
COC(=O)c1cc2c(N)c(C(=O)c3ccccc3)sc2nc1C(OC)OC	98	.	.	.	.	i	1.2
COc1cc2c(cc1OC)CN(Cc1cc(OC)c(O)c(OC)c1)CC2	99	.	2	-71	99	i	0.93
O=C(Nc1nc(-c2ccc(F)cc2)cs1)c1cccnc1	110	.	0	-18	136	i	0.81
O=S(=O)(NCCSc1ccccn1)c1ccc(Cl)cc1	101	0.1	3	-52	97	i	1.1
CCOC(=O)c1ccc(NC(=O)c2ccc(CO)c(C(=O)NC3CCN(C(=O)OCC)CC3)c2)cc1	98	-1.7	-10	.	.	i	0.81
Cc1ccc(CNC(=O)c2cc3c(C)nc4ccccc4c3o2)cc1	105	-1.2	10	.	.	i	0.75
CCCc1[nH]nc2c1C(c1ccsc1)C(C#N)=C(N)O2 (centres undefined)	99	.	-2	-50	98	i	1
Cc1ccc(S(=O)(=O)N2CC(O)CC2C(=O)OCC(=O)c2ccccc2Cl)cc1C (centres undefined)	109	0.8	5	11	90	i	1
CCOc1ccccc1CNC(=O)C1CCN(C(=O)c2sccc2-n2cccc2)CC1	99	-0.7	-1	.	.	i	0.91
O=C(Nc1ccccc1)c1cc2n(n1)C(C(F)(F)F)CC(C1CC1)N2 (centres undefined)	101	.	1	20	97	i	1.1
CCOC(=O)N1CCN(Cc2nc(-c3ccccc3)no2)CC1	106	-0.7	-11	21	171	i	0.93
O=C(NCCCn1ccnc1)c1cc(-c2ccncc2)nc2ccccc12	108	.	3	.	.	i	1.2
CC1=NN(C(N)=S)C(=O)C1N=Nc1ccccc1 (centres undefined)	100	.	-10	.	.	i	0.99
O=C(/C=C/c1cccs1)NC(=S)NNC(=O)Cc1cccs1	104	-1.8	0	-369	73	i	1
C=CCNC(=O)c1nn2cccnc2c1Cl	101	-4.0	-3	-6	130	i	0.91
CCCN1C(=O)CC(C(=O)OC)=C1C	101	-2.5	-2	-7	126	i	1.1
CCn1c(CNc2ccc(Cl)cc2)nnc1SCCN1CCCCC1	98	-1.6	-4	-325	47	i	1
O=C(NCCNS(=O)(=O)c1cccc(C(F)(F)F)c1)c1cc(OCC(F)(F)F)ccc1OCC(F)(F)F	104	1.0	-16	30	117	i	0.94
CCOC(=O)c1oc2cc(O)c(CC)cc2c(=O)c1-c1cscn1	99	.	-8	.	.	i	0.98
CC(C)(C)C(=O)Nc1ccccc1C(=O)Nc1ccccn1	100	-1.0	4	-138	104	i	1
COc1cccc(C(=O)N(Cc2nc(-c3cccc(C)c3)no2)C(C)C)c1OC	98	-1.3	-7	-290	45	i	0.75
COC(=O)c1ccc(Cn2nnc3ccccc32)cc1	102	.	.	.	.	i	1.1
O=C(Cn1c(NCCO)nc2ccccc21)c1ccc(Cl)cc1	96	-0.1	-1	27	95	i	0.83
COc1cccc(N(CC(=O)N2CCN(C)CC2)S(=O)(=O)c2ccc(C)cc2)c1	101	-1.4	2	43	125	i	0.79
Cc1nc(NC(=O)c2csc3ccccc23)sc1C	106	0.1	4	.	.	i	0.87
COc1ccc(-c2nnc(SCc3csc(N)n3)n2C)cc1	100	-1.6	1	-23	129	i	1
COc1ccc(NC(=O)CCN2CCN(S(=O)(=O)c3ccc(C(C)C)cc3)CC2)cc1	104	1.1	-3	-30	72	i	0.89
COc1ccc(-c2nnc(SCC(=O)c3cccs3)o2)cc1	82	-2.0	3	32	97	i	0.92
COc1ccc([N+](=O)[O-])cc1/C=N/Nc1nc(N2CCCCC2)nc(N2CCCCC2)n1	99	.	0	-22	152	i	0.76
CC1CN(C(=O)C2CCCN2S(=O)(=O)c2ccc(Cl)cc2)CC(C)O1 (centres undefined)	100	-1.5	-9	21	42	i	0.87
CN1CCN(C(N)=NC(=O)c2ccccc2)CC1	108	-0.2	-10	-22	87	i	0.91
Cc1ccc(S(=O)(=O)n2nc(-c3cccnc3)nc2N)cc1	103	-0.1	-8	.	.	i	0.59
COc1ccc(OCC(O)CNC(=O)Nc2cc(C)cc(C)c2)cc1 (centres undefined)	93	.	.	.	.	i	1
O=S(=O)(Nc1cccnc1)c1ccc2c(c1)OCCO2	103	-2.9	1	-225	99	i	0.98
Cn1nnnc1SCCNC/C=C/c1ccccc1	101	-1.1	9	9	91	i	0.92
Cc1ccc(CSc2sc(C(=O)c3ccccc3)c(N)c2C#N)cc1	95	-1.0	-5	50	61	i	1.1
CCOC(=O)c1[nH]c(=O)[nH]c1CSc1ccccn1	104	-2.0	2	53	68	i	1
CCc1cccc(NC(=O)Cn2ncn3c(cc4ccccc43)c2=O)c1	95	1.5	-1	.	.	i	0.95
O=C(O)c1ccccc1-c1nc2ccccc2c(=O)[nH]1	103	-1.7	-4	-15	82	i	0.76
CCCCCCCCC(=O)NNC(=O)c1c(O)c2ccccc2n(CC)c1=O	107	.	-1	.	.	i	1
Cc1cc(Cl)c(S(=O)(=O)N2CCN(c3ccccn3)CC2)cc1OCC(=O)NC1CCCCC1	96	.	.	.	.	i	0.8
COc1ccc(OC)c(Nc2ncnc3ccccc23)c1	97	-0.8	0	-36	134	i	0.99
CCOC(=O)C1C(=O)OC(C)(C)C1C(C)C(=O)c1ccccc1 (centres undefined)	168	-3.1	2	12	161	i	0.77

# Further results follow:
SMILES	RGS16-Gao	GALR2 ag	PKD1 inh	INS promoter inh	INS promoter inh cell count	HSV augment	HSV augment primary fold
CC(C)(C)NC(=O)Cn1c(SCC(N)=O)nc2ccccc21	106	-0.2	-7	-17	104	i	0.76
OCCN1CCN(c2cc(-c3ccccc3)c3ccccc3n2)CC1	106	-0.3	-1	-5	137	i	0.91
Cc1cccc(Nc2nc(N)c(C#N)c(CC#N)c2C#N)c1	69	-1.0	0	-42	72	i	0.97
COCC(C)N1CC(O)=C(c2nc(-c3ccc(Cl)cc3)cs2)C1=N (centres undefined)	104	.	3	.	.	i	0.93
O=C(CSc1ccc2ccccc2c1)NCc1cccs1	104	0.1	-11	.	.	i	0.98
Cc1cc(C)c(C)c(S(=O)(=O)N2CCN(Cc3nc4ccccc4[nH]3)CC2)c1C	95	-3.3	-3	-5	50	i	1
c1coc(-c2nnc(-c3ccc4c(c3)OCO4)o2)c1	101	-1.1	-5	27	44	i	1.2
Cn1c(=O)n(C)c2cc([N+](=O)[O-])c(N3CCN(S(=O)(=O)c4ccc5ccccc5c4)CC3)cc21	102	-1.6	6	.	.	i	0.95
CCOC(=O)C1(CCOC)CCN(Cc2ccccc2-c2ccco2)CC1	98	.	-4	.	.	i	1.1
Cc1ccc2c(c1)C(c1ccccc1)N(C(=O)c1cc3ccccc3oc1=O)CC(=O)N2 (centres undefined)	.	-1.3	-17	-67	86	.	.
Cc1sc(NC(=O)CSc2nnc(CCNC(=O)c3cccs3)n2C)nc1-c1ccccc1	112	1.3	-3	17	138	i	0.99
CCN1CCN(S(=O)(=O)c2ccc(Cl)c(C(=O)Nc3nnc(CC(C)C)s3)c2)CC1	95	-2.8	2	-9	126	i	0.94
Cc1c(C)n2c3c(cccc13)CC2	107	.	2	2	103	i	0.99
COc1ccc(OCCn2cc(/C=C(\C#N)C(=O)NCc3ccco3)c3ccccc32)cc1	111	13*	11	-13	79	i	0.9
CC(C)CC(NC(N)=O)C(=O)Nc1ccc(Oc2ccccc2)cc1 (centres undefined)	102	.	-1	.	.	i	0.83
Cc1cc(C2=NNC(=NC3CCCCC3)SC2)c(C)n1-c1c(C)n(C)n(-c2ccccc2)c1=O	102	-0.5	-1	-1	120	i	0.94
Cc1ccc(NC(=O)CSc2nnc3ccccn23)cc1S(=O)(=O)N1CCOCC1	100	.	-3	.	.	i	1
Cn1c(=O)[nH]c(=O)c2c1nc(CN1CCOCC1)n2CCc1ccccc1	96	-2.5	-8	-369	97	i	1
C=CCNC(=O)c1onc(CSc2cccc3ccccc23)c1C(=O)O	106	-3.6	-1	24	166	i	0.72
COC(=O)c1ccccc1NC(=O)C1CCN(S(=O)(=O)c2cc(OC)ccc2OC)CC1	109	0.0	1	60	173	i	0.94
CN(C)c1ccc(/C=N\S(=O)(=O)c2ccccc2)cc1	119	-0.6	-13	.	.	i	0.99
O=C(NCCO)NC(=S)c1ccccc1	109	-1.3	-4	.	.	i	0.93
COC(=O)CN1C(=S)N(c2ccc(OC)cc2)C(=O)/C1=C/c1ccc(OC)cc1	101	.	-3	48	123	i	1
COc1ccc2nc(NC(=O)CSc3nnnn3C)sc2c1	129	.	0	.	.	i	0.82
CCOC(=O)c1nnn(-c2nonc2N)c1CS(=O)(=O)c1ccccc1	108	-0.8	-6	17	72	i	1
CC(C)CNC1CCS(=O)(=O)C1 (centres undefined)	107	.	.	.	.	i	1.1
Cc1cccc(NC(=O)CN2C(=O)N/C(=C\c3ccc(N4CCOCC4)cc3)C2=O)c1	99	-0.6	6	23	103	i	1
CCCN1C(=O)N(C)C(N(O)C(=O)NC)C1(C)C (centres undefined)	92	-0.3	-9	-26	162	i	0.94
O=C(C1=C[C@H](c2ccc(Br)cc2)C[C@H](OCCCCO)O1)N1CCN(Cc2ccc3c(c2)OCO3)CC1	107	.	-3	.	.	i	0.74
OCc1nnn(-c2cccc(C(F)(F)F)c2)c1CO	101	0.6	4	.	.	i	0.88
CCn1cc(Br)c(C(=O)Nc2ccc(F)cc2F)n1	104	.	.	.	.	i	0.74
O=C(CSc1nc2ccc(Nc3nc(N4CCCC4)nc(N4CCCC4)n3)cc2s1)NCc1ccco1	100	.	.	.	.	i	0.85
O=C(CSc1nc2ccccc2o1)c1ccccc1	107	-1.3	-2	-12	164	i	0.89

# Of the compounds above, 9 have a thiophene ring, fused or not:
SMILES	RGS16-Gao	GALR2 ag	PKD1 inh	INS promoter inh	INS promoter inh cell count	HSV augment	HSV augment primary fold
COC(=O)c1cc2c(N)c(C(=O)c3ccccc3)sc2nc1C(OC)OC	98	.	.	.	.	i	1.2
CCCc1[nH]nc2c1C(c1ccsc1)C(C#N)=C(N)O2 (centres undefined)	99	.	-2	-50	98	i	1
CCOc1ccccc1CNC(=O)C1CCN(C(=O)c2sccc2-n2cccc2)CC1	99	-0.7	-1	.	.	i	0.91
O=C(/C=C/c1cccs1)NC(=S)NNC(=O)Cc1cccs1	104	-1.8	0	-369	73	i	1
Cc1nc(NC(=O)c2csc3ccccc23)sc1C	106	0.1	4	.	.	i	0.87
COc1ccc(-c2nnc(SCC(=O)c3cccs3)o2)cc1	82	-2.0	3	32	97	i	0.92
Cc1ccc(CSc2sc(C(=O)c3ccccc3)c(N)c2C#N)cc1	95	-1.0	-5	50	61	i	1.1
O=C(CSc1ccc2ccccc2c1)NCc1cccs1	104	0.1	-11	.	.	i	0.98
Cc1sc(NC(=O)CSc2nnc(CCNC(=O)c3cccs3)n2C)nc1-c1ccccc1	112	1.3	-3	17	138	i	0.99
